YopH PTP inh: inhibitors of Yersinia enterocolitica YopH tyrosine phosphatase; fluorescence Ex485/Em525; inhibition, %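 (about 10 µM by stock and volumes)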; 140,000 compounds, 0.16% hits;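 active means inhibition of 50% or more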;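 further: controls were vehicle for no effect and minimum signal wells for full effect; inactives centre near -20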
Mtb betalactam: beta-lactam sensitization of Mtb H37Rv; inhibition, % at 25 µM; AID 434955; 330,000 compounds, 0.27% hits; M. tuberculosis H37Rv growth with meropenem, percent inhibition; hits of this screen are not shown here;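 active means about 74% or more and at least 40 points above the plate without the antibiotic, then above 30% in a dose series; inconclusive means first-round hits that could not be retested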;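 further: growth measured after seven days incubation then overnight dye step; 0% = bacteria only wells and 100% = bacteria with antibiotic; twin plates without the antibiotic show which effects depend on it; some results filed as inactive read as strong as hits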
Mtb H37Rv: M. tuberculosis H37Rv growth inhibitors, H37Rv strain (AID 1626). M. tuberculosis H37Rv growth inhibition; higher % means a stronger effect. one-dose inhibition, % at 10 µM; IC50 in µM for titrated hits. 220,000 compounds, 0.95% hits;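 active means confirmed in a dose series; inconclusive means inhibition above 80% but not taken into the dose series; inactive means below 80% or under 30% at every dose of the series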;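 further: bacteria incubated seven days before Alamar blue readout; 0% = bacteria only wells and 100% = bacteria with antibiotic wells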
RecA intein inh: inhibitors of M. tuberculosis RecA intein splicing. P9WHJ3. cell-free RecA intein splicing, fluorescence. inhibition, %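 (about 9 µM by stock and volumes)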. 290,000 compounds, 0.75% hits. AID 2221; in the data active means inhibition above about 30%; inconclusive means no clear call, values can overlap the other calls;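 further: 0% = vehicle wells and 100% = reference inhibitor control wells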
Target sequence (P9WHJ3 whole entry, looked up): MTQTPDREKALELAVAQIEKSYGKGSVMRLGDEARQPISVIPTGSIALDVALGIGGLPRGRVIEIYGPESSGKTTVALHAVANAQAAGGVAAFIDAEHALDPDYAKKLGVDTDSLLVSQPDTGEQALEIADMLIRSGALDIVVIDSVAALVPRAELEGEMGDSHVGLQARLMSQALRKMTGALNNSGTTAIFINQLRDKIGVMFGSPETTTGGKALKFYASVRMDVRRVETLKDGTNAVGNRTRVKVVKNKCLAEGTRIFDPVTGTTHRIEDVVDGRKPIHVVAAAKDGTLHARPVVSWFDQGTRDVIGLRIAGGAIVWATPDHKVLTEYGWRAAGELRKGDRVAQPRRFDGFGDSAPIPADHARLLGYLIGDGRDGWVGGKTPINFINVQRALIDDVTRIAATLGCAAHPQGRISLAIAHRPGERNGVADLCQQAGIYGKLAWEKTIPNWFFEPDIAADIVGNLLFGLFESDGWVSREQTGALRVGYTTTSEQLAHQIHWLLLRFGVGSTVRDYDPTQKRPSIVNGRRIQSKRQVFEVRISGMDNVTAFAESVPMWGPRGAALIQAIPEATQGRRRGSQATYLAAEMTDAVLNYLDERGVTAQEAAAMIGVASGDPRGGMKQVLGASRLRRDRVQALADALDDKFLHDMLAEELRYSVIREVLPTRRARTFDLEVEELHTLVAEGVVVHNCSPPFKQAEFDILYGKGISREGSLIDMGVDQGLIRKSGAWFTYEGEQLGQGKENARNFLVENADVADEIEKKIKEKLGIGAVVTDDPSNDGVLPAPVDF
Arbovirus inh: antivirals against arbovirus infection; arbovirus infection cell-based antiviral screen; inhibition, % at 10 µM; 200,000 compounds, 0.37% hits; AID 1251;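 active means inhibition from about 30%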;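 further: bluetongue infection of BSR cells; cell survival read as ATP light after 72 h; 0% = infected wells without compound and 100% = uninfected wells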
Arbovirus inh repeat: further read-out of Arbovirus inh, marked with its call; inhibition, %; measured here: 10K subset replicate screen; many hits read low in the repeat;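 first of two repeat runs on a subset; 0% = infected and 100% = uninfected wells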
An asterisk follows results filed as active; ? = inconclusive; · = not tested or not shown.

SMILES	YopH PTP inh	Mtb betalactam	Mtb H37Rv	RecA intein inh	Arbovirus inh	others
O=C(Nc1nnc(C2CCCC2)s1)C1CCN(S(=O)(=O)c2ccc(Cl)cc2)CC1	1	0	7%	-0.6	1
O=C(CN1CC=C(c2ccccc2)CC1)NC(=O)NCc1ccco1	-39	?	-4%	2.9	-2
COC(=O)C1=C(C)NC(=S)NC1c1ccc(OC(=O)c2ccco2)cc1 (stereo not drawn)	·	-7	-5%	31*	4
CCOC(=O)N1CCN(C(=O)CCc2nc3sc4c(c3c(=O)[nH]2)CCCC4)CC1	·	-10	1%	-4.3	9	Arbovirus inh repeat=3
CC1(C)CC(NS(=O)(=O)OCC(Cl)(Cl)Cl)c2cc(C#N)ccc2O1 (stereo not drawn)	·	-3	·	10	·
Cc1ccccc1N=CC=C1OC(C)(C)C(C)(C)O1	-28	3	12%	-6.4	-7
O=C(CN1C(=O)C2C3c4ccccc4C(c4ccccc43)C2C1=O)N1CCOCC1 (stereo not drawn)	-10	7	5%	-2.1	-4
Cc1ccc(-c2cc(-c3ccccc3)nc(Cl)n2)cc1	-29	93	6%	1.7	2
COc1ccccc1NC(=S)N1CCNC(=O)C1CC(=O)Nc1cccc(C)c1 (stereo not drawn)	·	-6	5%	-1.9	·
CC(=O)NCCC(=O)NCC1(N(C)Cc2ccccc2)Cc2ccccc2C1	·	-5	·	1.7	·
CN(Cc1cn(C)c2ccccc12)C(=S)Nc1cc(F)cc(F)c1	-14	-3	2%	1.4	17
CC(=O)C1=C(O)C(=O)N(c2ccc(Br)cc2)C1c1ccc(Br)cc1 (stereo not drawn)	·	9	·	4.3	·
CC(=O)Nc1nc2ccc(C(=O)NC3CCCCC3)cc2s1	-17	13	4%	0.6	-9
O=C(c1ccc(Cn2cc(Cl)c([N+](=O)[O-])n2)cc1)N1CCN(Cc2ccccc2)CC1	·	1	-7%	3.8	·
O=C1NC(=S)SC1=C1CCCC1	-18	-10	-17%	1.2	18
COCCn1nnnc1C(c1cc2cc(OC)c(OC)cc2[nH]c1=O)N1CCN(c2ccc(O)cc2)CC1 (stereo not drawn)	·	-2	-4%	-5.1	7
Cc1cc(C)cc(OC2CCCCC2NS(=O)(=O)c2ccccc2)c1 (stereo not drawn)	-23	9	15%	5.3	-6
O=C(c1cccc(F)c1)N1CCN(S(=O)(=O)c2ccc(C(F)(F)F)cc2)CC1	-35	0	-1%	0.5	-1
Cc1cc(Br)ccc1OCC(=O)NNC(=O)CCc1ccccc1	·	-1	·	-0.2	·
COc1cccc(NC(=O)c2nn(C34CC5CC(CC(C5)C3)C4)cc2[N+](=O)[O-])c1	-14	29	-7%	7.0	-3
Cc1nc2nc(C)c(CCC(=O)NCCC3=CCCCC3)c(C)n2n1	-46	-2	2%	-3.0	10
Cc1cc(=O)n(-c2ccc(O)cc2)[nH]1	2	29	2%	97*	-35
CN1CCN(CCCNC(=O)Nc2ccc([N+](=O)[O-])cc2)CC1	·	-1	·	0.6	·
CCC(=O)c1ccc(OCC(O)Cn2nc(C)cc2C)cc1 (stereo not drawn)	·	5	·	-3.1	·
COc1ccc(Cl)cc1-c1nc(-c2ccncc2)no1	-15	-8	5%	3.4	0

The list goes on, overlapping the part above by three compounds.
SMILES	YopH PTP inh	Mtb betalactam	Mtb H37Rv	RecA intein inh	Arbovirus inh	others
CN1CCN(CCCNC(=O)Nc2ccc([N+](=O)[O-])cc2)CC1	·	-1	·	0.6	·
CCC(=O)c1ccc(OCC(O)Cn2nc(C)cc2C)cc1 (stereo not drawn)	·	5	·	-3.1	·
COc1ccc(Cl)cc1-c1nc(-c2ccncc2)no1	-15	-8	5%	3.4	0
COc1ccc(C2Nc3ccccc3C(=O)N2Cc2ccccc2)cc1COc1ccccn1 (stereo not drawn)	-12	1	0%	4.9	-1
O=[N+]([O-])c1cccnc1S(=O)(=O)c1ccccc1	·	100	·	-3.6	·
Cc1cc(NC(=O)c2noc3c2CCCCC3)no1	-38	-7	-3%	3.0	6
COc1ccc(CCNC(=O)C2CC(c3cc(C(F)(F)F)cc(C(F)(F)F)c3)=NO2)cc1 (stereo not drawn)	·	-3	-6%	-2.3	·
CCOC(=O)C(NS(=O)(=O)c1ccc(Br)cc1)C(C)C (stereo not drawn)	-32	6	0%	-0.5	-1
Cc1ccccc1Oc1nc(-c2ccccn2)nc2ccccc12	·	90	?	8.4	·
CC(C)Cc1nnc(NC(=O)CCC(=O)N2CCN(S(=O)(=O)c3ccccc3)CC2)s1	-42	3	-2%	2.1	3
NC(=O)c1cccn1Cc1cccc(Cl)c1	6	4	-2%	0.4	3
CCc1ccc(N(C(=O)c2ccoc2C)C(C(=O)NC2CCCC2)c2ccc(OC)cc2)cc1 (stereo not drawn)	-13	5	-11%	6.4	-9
FC(F)(F)c1ccc(N2CCN(c3ncnc4c3nnn4Cc3ccccc3Cl)CC2)cc1	-8	1	3%	1.2	-1
O=C(CCc1nnc(COc2ccccc2)o1)NCc1ccc(Cl)s1	·	-8	5%	-2.0	2
Cc1cccc(-n2ncc3c2CCCC3NC(=O)CCN2Cc3ccccc3C2=O)c1C (stereo not drawn)	·	?	·	-1.2	·
COc1ccc(S(=O)(=O)NCC2CCCN(Cc3cccnc3)C2)cc1 (stereo not drawn)	·	-3	-9%	-1.5	-5
CCCCOc1ccc(S(=O)(=O)N2CCN(c3ccc(N4CCN(CC)CC4)nn3)CC2)cc1	·	-2	·	-3.8	·
CC1CCCC(NC(=O)COC(=O)Cc2cn3ccsc3n2)C1C (stereo not drawn)	-38	·	-1%	·	-1
Cc1ccc(NC(=O)CSc2nnc(-c3ccco3)n2N)cc1F	·	0	·	-3.0	·
O=C(c1nn(Cc2ccccc2)c(=O)c2ccccc12)N1CCN(c2ccccn2)CC1	-41	13	-2%	0.5	5
O=C(Cc1cccs1)Nc1nc(-c2ccc(F)cc2F)cs1	-13	83	4%	1.2	-23
COc1ccc(C2C(C(C)=O)=C(O)C(=O)N2CCCn2ccnc2)cc1 (stereo not drawn)	-18	5	-12%	5.3	4
COc1ccc(C2(CCN=Cc3ccc(N(C)C)cc3)CCOC(C)(C)C2)cc1 (stereo not drawn)	·	1	-3%	1.6	·
CCc1nnc(NC(=O)CCC(=O)N2CCN(Cc3ccc(Cl)cc3)CC2)s1	-1	1	10%	-0.2	15
Cc1cccc(N/N=C(\C=N\N)C(=O)c2ccc(Br)cc2)c1	·	3	5%	4.1	-17
O=[N+]([O-])c1cccc(-n2nnnc2CNCc2ccccc2)c1	·	-8	4%	0.7	·
N#C/C(=N/O)c1nc(-c2ccc(F)cc2)cs1	-33	?	49%	-1.0	2
COC(=O)c1cccc(N(C(=O)c2cnccn2)C(C(=O)NC2CCCCC2)c2cn(C)nc2C)c1 (stereo not drawn)	-13	10	2%	-2.1	9

Pulled by structure from the list above:
SMILES	YopH PTP inh	Mtb betalactam	Mtb H37Rv	RecA intein inh	Arbovirus inh	others
Cc1ccccc1Oc1nc(-c2ccccn2)nc2ccccc12	·	90	?	8.4	·
CCC(=O)c1ccc(OCC(O)Cn2nc(C)cc2C)cc1 (stereo not drawn)	·	5	·	-3.1	·

Some of these compounds in order of molecular weight, lowest first:
SMILES	YopH PTP inh	Mtb betalactam	Mtb H37Rv	RecA intein inh	Arbovirus inh	others
Cc1ccccc1Oc1nc(-c2ccccn2)nc2ccccc12	·	90	?	8.4	·
COc1ccc(C2C(C(C)=O)=C(O)C(=O)N2CCCn2ccnc2)cc1 (stereo not drawn)	-18	5	-12%	5.3	4
CC(C)Cc1nnc(NC(=O)CCC(=O)N2CCN(S(=O)(=O)c3ccccc3)CC2)s1	-42	3	-2%	2.1	3

Next part.
SMILES	YopH PTP inh	Mtb betalactam	Mtb H37Rv	RecA intein inh	Arbovirus inh	others
CCc1ccc(NCc2nc3ccccc3c(=O)[nH]2)cc1	-39	97	21%	-0.9	-13
N#Cc1nc(-c2ccccc2F)oc1NCc1ccccc1	-45	26	17%	3.9	5	Arbovirus inh repeat=5
CCOC(=O)c1c(NC(=O)CN(CC)CC)sc2c1CCN(C(=O)OCC)C2	-25	5	10%	3.1	-14
COc1c(C)cc(C(=O)C2CCCN(C(=O)c3cccc(F)c3)C2)cc1C (stereo not drawn)	·	-10	-1%	2.3	4
Cc1cc(C)nc(NS(=O)(=O)c2ccc(CC(C)C)cc2)c1	·	-2	-3%	2.1	·
O=C(O)c1cn(-c2ccccc2)c(=O)c2ccccc12	-5	-1	-7%	1.8	8
NS(=O)(=O)c1cccc(NS(=O)(=O)c2ccc(/C=C/C(=O)OCC(=O)c3ccc(Br)cc3)cc2)c1	·	5	1%	-0.9	1
Cc1cccc(-c2oc3ccc(-c4ccc5c(c4)OCO5)cc3c2/C=C/c2ccc(N)cc2)c1	·	34	·	-15	·
COc1cc2[nH]c(C(=O)N3CCc4ccccc43)cc2c(OC)c1OC	·	-4	·	4.6	·
CNC(=O)NNC(=O)c1onc(-c2c(Cl)cccc2Cl)c1C(=O)OC	·	-8	-8%	9.5	·
Cc1nn(CC(=O)NCC2CCCO2)c(C)c1[N+](=O)[O-] (stereo not drawn)	·	-7	12%	-0.4	-4
Cc1cc(C)nc(/N=C2\NC(=O)CC(C(=O)O)N2c2ccc(F)c(Cl)c2)n1 (stereo not drawn)	·	-3	-7%	0.9	5
COc1ccc(CNC(=O)CCn2c(=O)[nH]c3ccccc3c2=O)cc1	·	6	0%	-1.2	-5
O=C(Nc1nccs1)c1ccc(Cl)c(S(=O)(=O)N2CCOCC2)c1	-1	-11	-20%	-0.6	9
CC1(C)Cc2c(sc3nc(-c4cc5ccccc5o4)n(N)c(=O)c23)CO1	-12	-1	-5%	-4.2	-4
O=C(NCCCN1CCOCC1)c1sc2ccccc2c1Cl	·	1	-10%	1.2	-1
CCOC(=O)COc1ccc2c3c(c(=O)oc2c1C)CCC3	0	84	77%	0.1	-4
CC(Cc1ccccc1)NC(=O)Cc1ccc(N(C)C)cc1 (stereo not drawn)	-22	-3	2%	1.7	-5
COc1ccc(-c2nc(NC(=O)C3CCN(c4nc5ccccc5o4)CC3)sc2C)cc1	-41	51	11%	3.2	-1
Cn1c2c(c(=O)n(C)c1=O)C(c1ccc(F)cc1)C(C#N)=C(N)O2 (stereo not drawn)	·	0	-2%	2.3	-4
CCc1c(C)nc(SCC(=O)NC2CCCC2)[nH]c1=O	·	100	·	-1.8	·
COC(=O)C1=Nc2ccccc2/C1=C\c1c(O)n(C)c(=O)n(C)c1=O	·	6	3%	0.8	·
O=C1CN(C(=O)c2ccco2)C(c2ccccc2)c2cc(Cl)ccc2N1 (stereo not drawn)	-22	-3	-6%	6.7	-8
O=C1c2cccc3cc([N+](=O)[O-])cc(c23)C(=O)N1CC1CCCO1 (stereo not drawn)	·	99	?	-59	·
CC(C)Cn1c(N)c(C=O)c(=O)n(C)c1=O	·	-2	-1%	1.9	22
Going on with the list.
SMILES	YopH PTP inh	Mtb betalactam	Mtb H37Rv	RecA intein inh	Arbovirus inh	others
Cn1c(COc2ccccc2)nnc1SCCSc1nnc(COc2ccccc2)n1C	-13	-3	-1%	-1.0	4
CN(C)c1ccc(NC(=O)Cn2c(=O)n(Cc3ccccc3)c(=O)c3ccccc32)cc1	-45	2	-5%	-1.0	0	Arbovirus inh repeat=-1
COc1cc(/C=N/N(c2ccccc2)c2ccccc2)ccc1O	·	3	·	17	·
Cc1ccc(Cl)cc1NC(=O)COc1ccccc1	·	1	·	1.7	·
CC(C)/C=N/NC(=O)c1cccc(N2CCCC2=O)c1	-8	-1	-3%	0.3	-6
O=C(NNC(=O)c1ccccc1O)c1ccc(Cl)cc1	-9	3	-7%	-1.8	-30
Cn1ncc([N+](=O)[O-])c1C(=O)Nc1ccc(Cl)cc1	·	8	·	-1.5	·
CC(=O)Nc1nc(C)c(C(C)(C)C)s1	·	-2	-6%	-1.8	·
COc1cc2c(cc1OC)CN(CCC(C)c1ccc(Cl)cc1)CC2 (stereo not drawn)	·	5	·	0.9	·
CCOC(=O)N1CCC(N2Cc3cccc(C(=O)NCc4ccccc4OC)c3C2=O)CC1	-27	0	1%	-0.1	-22
Cc1ccc(NS(=O)(=O)c2cc3c4c(c2)CC(=O)N4CCC3)cc1C	·	1	·	-0.1	·
Cn1c(-c2ccccc2)cnc1NCc1cccc([N+](=O)[O-])c1	·	12	·	-2.6	·
CCCOc1ccc(N2C(=O)CC(N(CCc3ccc(OC)cc3)C(=O)c3cccc(F)c3)C2=O)cc1 (stereo not drawn)	-33	-4	2%	6.5	5
COc1cc(C2C(C(=O)c3cccs3)=C(O)C(=O)N2CCN2CCOCC2)cc(OC)c1OC (stereo not drawn)	·	12	·	-1.0	·
COC(=O)c1ccc(NC(=O)COc2ccc(S(=O)(=O)N3CCCCC3)cc2)cc1	-9	3	-3%	-1.1	0
CSCCCNC(=S)Nc1ccc(N2CCOCC2)cc1	·	-7	-10%	-4.6	6
O=C(O)COc1ccccc1/C=N/NC(=O)CSc1nc2ccccc2c(=O)n1-c1ccc(Cl)cc1	·	-1	-2%	-0.9	·

This is a subset; rates above refer to the full screens.
